Screening results: PubChem BioAssay, National Center for Advancing Translational Sciences (NCATS)
NS1 function inh: qHTS Assay for Inhibitors of Influenza NS1 Protein Function | S. cerevisiae slowed by influenza A NS1, growth recovery by OD600 | actives 0.4% (n = 270,000) | Potency, µM (top dose mostly 46.1 µM), for inactives: at the highest dose activity, positive = more growth; active means well fitted rising curve with a large enough effect; inconclusive means small, poorly fitted or top-dose-only effect; inactive means no such curve, though single readings can be large or run the other way; further: nearly all actives have a fitted effect of over 50% in size
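Growth recovery, yeast-based: influenza A NS1 expressed in S. cerevisiae causes slow growth, and suppressors are detected by OD600. The parent strain without NS1 is used as positive control.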
RE007 growth inh: qHTS Assay for Inhibitors of the HIV-1 protein Vpr; AID 651644, 2012; actives 0.21% (n = 360,000); Potency, µM (series often up to 92.2 µM), for the others: at the highest dose activity change, negative = less growth; S. pombe RE007 Vpr strain, BacTiter-Glo ATP luminescence, 24 h; control for the full effect not named in the record; active = well fitted falling curve with a large enough effect; inconclusive = small, poorly fitted or top-dose-only effect; inactive = no such curve, though single readings can be large or run the other way;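 further: on the % scale 0 is the no-effect control and ±100 the full control effect; nearly all actives have a fitted effect of over 50% in size; the assay follows cell death caused by Vpr and the record does not say whether a fall means rescue or toxicity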
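Fission yeast RE007 carrying one integrated HIV-1 vpr copy, seeded at OD 0.01 in PMG+AL medium with 23 nL pinned compound. Grown 24 h at 30 degrees; viability read by BacTiter-Glo luminescence after 5 min.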
Lassa entry inh: qHTS for Inhibitors of binding or entry into cells for Lassa Virus; Lassa virus pseudotype entry inhibition, cell reporter; control for the full effect not named in the record; Potency, µM (doses to about 37.9 µM), without a hit: top-dose activity change, negative = inhibition, most hits filed as inhibitors; actives 1.2% (n = 300,000); AID 540256, 2011; active means well fitted inhibition curve with a large enough effect; inconclusive means small, poorly fitted or top-dose-only effect, or effect the other way; inactive means flat fitted curve, though single readings scatter; tested in HEK293 cells; further: on the % scale 0 is the no-effect control and ±100 the full control effect; nearly all actives have a fitted effect of over 50% in size; luciferase read-out
SARS PLP yeast: qHTS of Yeast-based Assay for SARS-CoV PLP | AID 485353, 2010 | Potency, µM (highest dose often 32.9 µM), for inactives: at the top dose activity, positive = growth rescue | actives 0.19% (n = 330,000) | S. cerevisiae expressing SARS-CoV PLpro, growth rescue; control for the full effect not named in the record; active means well fitted rising curve with a large enough effect; inconclusive means small, poorly fitted or top-dose-only effect; inactive means no such curve, though single readings can be large or run the other way; further: 0% is about no effect; nearly all actives have a fitted effect of over 55% in size; growth read by luminescence after 48 h
StopGo reporter: High Throughput Screening for Foot and Mouth Disease Virus Antivirals; Potency, µM (series often up to 57.9 µM), inactives show top-dose signal change, negative = less light; actives 1.2% (n = 410,000); AID 1159524, 2015; human cells with a luciferase reporter of 2A StopGo recoding; control for the full effect not named in the record; active = well fitted falling curve with a large enough effect; inconclusive = small, poorly fitted or top-dose-only effect; inactive = no such curve, though single readings can be large or run the other way; tested in HEK293T cells; further: on the % scale 0 is the no-effect control and ±100 the full control effect; nearly all actives have a fitted effect of over 45% in size; luciferase light after 4 h
MARV entry inh: qHTS for inhibitors of binding or entry into cells for Marburg Virus | actives 1.8% (n = 300,000) | Marburg virus pseudotyped entry inhibition, cell reporter; control for the full effect not named in the record; about a third of the inactives were read at about 46 µM | Potency, µM (doses to about 37.8 µM), for inactives: at the top dose activity change, negative = inhibition, usual class: inhibitors; active = well fitted inhibition curve with a large enough effect; inconclusive = small, poorly fitted or top-dose-only effect, or effect the other way; inactive = flat fitted curve, though single readings scatter; tested in HEK293 cells; about a fifth of its hits are not listed in these tables; further: on the % scale 0 is the no-effect control and ±100 the full control effect; luciferase read-out
Cruzain inh Det: qHTS Assay for Promiscuous and Specific Inhibitors of Cruzain (with detergent); Cruzipain (Trypanosoma cruzi), P25779; purified cruzain, Z-FR-AMC fluorescence, 0.01% Triton; Potency, µM, for the others: max response, negative = inhibition, usual class: inhibitors; actives 0.43% (n = 200,000); AID 1478, 2009;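 further: plate controls were neutral wells for no effect and buffer without enzyme for full effect; nearly all actives have a fitted effect of over 40% in size; top concentration of the series not given in the record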
Target sequence (P25779 123-467 limits assumed): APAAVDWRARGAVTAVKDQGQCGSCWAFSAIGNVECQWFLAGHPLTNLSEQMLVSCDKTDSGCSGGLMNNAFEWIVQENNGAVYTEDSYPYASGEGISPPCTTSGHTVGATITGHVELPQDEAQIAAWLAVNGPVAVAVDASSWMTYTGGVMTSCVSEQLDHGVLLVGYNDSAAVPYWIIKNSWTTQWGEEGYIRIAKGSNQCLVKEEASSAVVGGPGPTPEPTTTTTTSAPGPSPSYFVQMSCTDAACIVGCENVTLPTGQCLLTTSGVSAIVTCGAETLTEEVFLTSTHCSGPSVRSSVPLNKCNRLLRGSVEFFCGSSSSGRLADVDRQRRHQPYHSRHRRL
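Sodium acetate buffer (100 mM, pH 5.5) containing 5 mM DTT and 0.01% Triton X-100 hosted 1.5 nM cruzain and test compound for 15 min at room temperature. Cleavage of 2 uM Z-FR-AMC was then tracked by fluorescence.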
Cruzain inh noDet: qHTS Assay for Promiscuous and Specific Inhibitors of Cruzain (without detergent); actives 2.3% (n = 200,000); AID 1476, 2009; purified cruzain, Z-FR-AMC fluorescence, no detergent; Cruzipain (Trypanosoma cruzi), P25779; Potency, µM, inactives show max response, negative = inhibition, usual class: inhibitors;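 further: plate controls were enzyme without inhibitor for no effect and buffer without enzyme for full effect; nearly all actives have a fitted effect of over 40% in size; top concentration of the series not given in the record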
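Detergent-free condition (0.00005% Triton X-100) in acetate buffer pH 5.5 with DTT. 1.5 nM enzyme and compound were pre-mixed 15 min, then 2 uM Z-FR-AMC substrate added; reaction progress from fluorescence change between first and third reads (60 s).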
The depositor's hits bear a star; ? = inconclusive; . = not tested or not shown; [ ] = dose if it differs, or a comment. Unless noted, the call rests on the fitted dose curve; in most records, active means well fitted curve in the direction sought with a large enough effect; inconclusive means small, poorly fitted or top-dose-only effect, or another doubt; inactive means no such curve, though single readings can be large; an effect the other way counts as inactive or inconclusive. Potency means the concentration at half of the fitted maximal effect. Outcome played no part in choosing rows. About 4.8% of those tested had a hit in this group.

SMILES | NS1 function inh | RE007 growth inh | Lassa entry inh | SARS PLP yeast | StopGo reporter | MARV entry inh | Cruzain inh Det | Cruzain inh noDet
COc1ccc(NC(=O)c2nn(C34CC5CC(CC(C5)C3)C4)cc2[N+](=O)[O-])cc1 | -2% | -8% | ? | 6% | -15% | ? | -4.1% | -1%
CCN1CCN(C(c2cc3cccc(C)c3[nH]c2=O)c2nnnn2Cc2ccccc2)CC1 (stereo not given) | -9% | 5% | ? | 9% | 17% | -17% | -1.3% | ?
CC1CCCCC12NC(=O)N(CC(=O)OCc1ccccc1F)C2=O (stereo not given) | . | -13% | 0% | -6% | -19% | 23% | . | .
COc1ccccc1OCC(=O)NCc1nc(-c2ccc(Cl)cc2)no1 | . | . | 14%[46.1 µM] | . | -11% | 0%[46.1 µM] | -9.9% | 4%
CN(C)c1nc(N)c([N+](=O)[O-])c(N2CCCCCC2)n1 | -7% | 0% | . | 3% | -21% | . | . | .
c1ccc(N2CCN(CC3CCCCC3)CC2)cc1 | 0% | 1% | . | 3% | -15% | . | . | .
CCn1ccnc1CNC(=O)CC1C(=O)NCCN1Cc1ccc(OC)cc1OC (stereo not given) | 6% | -24% | . | -1% | 3% | . | . | .
C/C(CC(=O)Nc1ccc2c(c1)OCCO2)=N\NC(=O)COc1ccc(C)cc1 | 5% | -5% | 14%[46.1 µM] | -2% | 23% | 14%[46.1 µM] | . | .
COc1ccc(-c2cc(C(=O)Nc3cc(C)on3)c3ccccc3n2)c(OC)c1 | 22% | 46% | -9% | 4% | ? | ? | . | .
COc1cc2c(C(=O)N3CCN(c4ccccc4C)CC3)c(C)oc2cc1Br | 1% | 6% | -3% | -3% | ? | -4% | -0.8% | -7%
C=CCN(CC=C)CC(=O)Nn1c(C)ccc1C | . | -12% | 4% | . | -13% | 3% | . | .
CCOC(=O)C1CCN(C(=O)c2cccc(S(=O)(=O)N3CCCc4ccccc43)c2)CC1 | . | -11% | -8% | . | -4% | -23%[46.1 µM] | . | .
COc1ccc(S(=O)(=O)c2c(C(=O)c3ccc(C)c(C)c3)cnc3ccc(C)cc23)cc1 | . | . | . | . | -9% | ? | -4.8% | 13µM*
COc1ccc(C(=O)NCC(c2cccs2)S(=O)(=O)c2ccc(F)c(C)c2)cc1 (stereo not given) | . | . | 7%[46.1 µM] | . | 0% | . | -2.8% | -5%
CCn1c(SCc2ccc(C)cc2)nnc1C1CCN(S(=O)(=O)c2ccc(OC)cc2)CC1 | 10% | 18% | -5% | 2% | -24% | -24% | 0.7% | 18%
O=C(NCCc1ccccc1)C1CCCN1C(=O)Nc1ccc(F)cc1 (stereo not given) | 5% | 0% | 5% | 1% | -3% | -6% | 10% | 11%
Cc1c(C(=O)OC2CCCCCC2)[nH]c2c1C(=O)CC(c1ccc(N(C)C)cc1)C2 (stereo not given) | . | . | 7%[46.1 µM] | . | ? | 12%[46.1 µM] | -1.8% | -14%
COc1cccc(-c2nn(C)c3sc(C(=O)NCc4ccco4)cc23)c1 | -7% | 2% | . | -8% | -15% | 8% | -6.9% | ?
O=C(CCCn1c(=S)[nH]c2ccsc2c1=O)NCc1ccco1 | -2% | 10% | -12%[14.3 µM] | 1% | -3% | 1% | 6.8% | -7%
Fc1ccc(CNc2ncnc3c2c(-c2ccccc2)cn3-c2ccccc2)cc1 | . | . | 18%[46.1 µM] | . | ? | . | 2.8% | 11%
CC(=NCC1CCCO1)c1c(O)n(-c2ccccc2C)c(=O)[nH]c1=O (stereo not given) | 0% | 6% | ? | -1% | -14% | 2%[46.1 µM] | . | .
CCOc1ccc(Cn2c(CNS(=O)(=O)c3ccc(C(C)(C)C)cc3)nc3cccnc32)cc1 | . | . | 20%[46.1 µM] | . | 23% | . | -6.3% | -13%
O=C(Nc1ccc(Br)cc1F)c1sccc1-n1cccc1 | -20% | -10% | -2% | 1% | . | -16% | -2.7% | 5%
Cc1cc(OCC(=O)OCC(=O)N(C)C2CCS(=O)(=O)C2)ccc1Cl (stereo not given) | . | 4% | ? | 4% | 9% | 17% | . | .

7 entries out of the list, arranged by number of heavy atoms, falling:
SMILES | NS1 function inh | RE007 growth inh | Lassa entry inh | SARS PLP yeast | StopGo reporter | MARV entry inh | Cruzain inh Det | Cruzain inh noDet
CCOc1ccc(Cn2c(CNS(=O)(=O)c3ccc(C(C)(C)C)cc3)nc3cccnc32)cc1 | . | . | 20%[46.1 µM] | . | 23% | . | -6.3% | -13%
CCn1c(SCc2ccc(C)cc2)nnc1C1CCN(S(=O)(=O)c2ccc(OC)cc2)CC1 | 10% | 18% | -5% | 2% | -24% | -24% | 0.7% | 18%
COc1ccc(S(=O)(=O)c2c(C(=O)c3ccc(C)c(C)c3)cnc3ccc(C)cc23)cc1 | . | . | . | . | -9% | ? | -4.8% | 13µM*
COc1ccc(C(=O)NCC(c2cccs2)S(=O)(=O)c2ccc(F)c(C)c2)cc1 (stereo not given) | . | . | 7%[46.1 µM] | . | 0% | . | -2.8% | -5%
COc1cccc(-c2nn(C)c3sc(C(=O)NCc4ccco4)cc23)c1 | -7% | 2% | . | -8% | -15% | 8% | -6.9% | ?
Cc1cc(OCC(=O)OCC(=O)N(C)C2CCS(=O)(=O)C2)ccc1Cl (stereo not given) | . | 4% | ? | 4% | 9% | 17% | . | .
O=C(CCCn1c(=S)[nH]c2ccsc2c1=O)NCc1ccco1 | -2% | 10% | -12%[14.3 µM] | 1% | -3% | 1% | 6.8% | -7%

Carrying on.
SMILES | NS1 function inh | RE007 growth inh | Lassa entry inh | SARS PLP yeast | StopGo reporter | MARV entry inh | Cruzain inh Det | Cruzain inh noDet
Cc1ccc(Cn2ncc3c(N4CCN(Cc5ccc(Cl)cc5)CC4)ncnc32)cc1 | 7% | -9% | ? | -1% | ? | 2.8µM* | -4.7% | 6%
COc1ccc(CC(=O)N2CCc3c([nH]c4ccccc34)C2c2ccc(SC)cc2)cc1 (stereo not given) | . | . | ? | . | -17% | . | 3.8% | 25µM*
C=CCn1c(COc2ccc(OC)cc2)nnc1SCn1nnc2ccccc2c1=O | -8% | -3% | ? | -3% | 8% | ? | -3.3% | 12%
CCN(CC)C(=O)Cn1c(=O)n(-c2ccc(Cl)cc2)c(=O)c2c3c(sc21)CCC3 | . | . | -13%[46.1 µM] | . | -3% | 19%[46.1 µM] | -1.6% | -15%
Cc1cc(C(=O)Nc2ccc(Cl)cc2)c(C)n1-c1ccccc1 | -3% | -12% | ? | -5% | ? | 1.1µM* | . | .
CCOc1nc(NC(=O)NS(=O)(=O)Oc2ccccc2)nc(-c2ccccc2)n1 | . | . | ? | . | 16% | 10%[46.1 µM] | 0.2% | -8%
CCCCOc1ccc(/C=C/C(=O)NC2=Nc3ccccc3NC(C)=C2C(=O)OCC)cc1OC | . | -17% | 1%[46.1 µM] | 2% | -9% | 6.3µM* | . | .
COc1ccc(OC)c(S(=O)(=O)Nc2ccc(-c3ccc4nnc(C)n4n3)cc2)c1 | . | -18% | ? | 6% | 82%[activator] | 0% | . | .
Cc1noc(C)c1CSCC(=O)N(C)CC(=O)Nc1ccc(Cl)c(C(F)(F)F)c1 | . | -9% | ? | 5% | -27% | -5%[46.1 µM] | . | .
O=C(O)/C=C/c1cccc(NC(=O)c2ccccc2)c1 | 1% | -1% | ? | -2% | -14% | 0%[46.1 µM] | . | .
Cc1sc(-c2ccncc2)nc1OC(=O)c1ccc(Cl)cc1 | -20% | -13% | -1% | -8% | -23% | -1% | -5.8% | 24%
CSc1nsc(SCC(=O)Nc2ccc(Cl)c(C(=O)O)c2)n1 | 3% | 0% | . | 1% | 6% | -4%[46.1 µM] | . | .
c1ccc(C2NCCNC2c2ccccc2)cc1 (stereo not given) | . | -11% | 0% | . | -17% | -22% | . | .
Cc1ccccc1C(=O)NC1CCN(Cc2nnnn2C2CCCC2)CC1 | 1% | 16% | 9% | 15% | 18% | 10% | -0.3% | -2%
CCNc1nc(NCC)n2c(SCC(=O)NC34CC5CC(CC(C5)C3)C4)nnc2n1 | -4% | 3% | 0% | -11% | -29% | ? | 2.9% | 5%
Cc1cnc(C)c(N2CCN(C(=O)C3CCC(=O)N(CCc4cccc(F)c4)C3)CC2)n1 (stereo not given) | -2% | -10% | -9% | -6% | -5% | 5% | . | .
COCCCN1CN(Cc2ccccc2)CNC1=S | 3% | 8% | . | 15% | -11% | . | 0.3% | -17%
Cc1ccc(C)c(NC(=O)CN(C)C(=O)c2ccc3[nH]c4c(c3c2)CC(C)CC4)c1 (stereo not given) | . | 5% | 0.56µM* | -5% | -20% | -30% | . | .
O=C(O)c1cccc(-c2nnn(Cc3ccccc3Cl)n2)c1 | -8% | -17% | 8.2µM* | -8% | -25% | 6.3µM* | -2.0% | -21%
COc1ccc(/C=C2\SC(=O)N(CCNC(=O)Cn3cnnn3)C2=O)cc1 | -2% | -16% | ? | -13% | 26% | ? | -7.2% | -10%
O=C(c1ccccc1)N(Cc1nc2ccccc2c(=O)[nH]1)C1CCCC1 | -4% | 10% | 2% | -1% | -23% | 0%[46.1 µM] | . | .
O=C(CSc1nc(C2CC2)nc2ccccc12)Nc1ccc2c(c1)OCCO2 | 4% | 4% | -17% | 5% | ? | -20% | 1.9% | 2%
CNC(=S)NC12CC3CC(CC(C3)C1)C2 | -2% | 4% | ? | -1% | -10% | 2%[46.1 µM] | . | .
Nc1nnnn1/N=C/c1cccc(O)c1 | 6% | -3% | 13% | 9% | -4% | 5% | 2.2% | -5%
O=C(O)c1ccc(NCc2ccc3c(c2)OCO3)cc1 | -102% | -22% | 3% | ? | 0% | 29%[46.1 µM] | 4.2% | -15%
